# Sa growth inh: blocks Staphylococcus aureus growth. relative growth, % (concentration not given with the values). S. aureus RN4220 growth, OD600, 20 h, 42 °C; hits give low values. actives 0.53% (n = 170,000);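 active means growth at 42 °C up to 50% and 20 or more points under that at 30 °C, or under 10% at both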;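 further: 300 nL library stock went into each well; scaled to the means of positive and negative controls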
# GIV Gai3 FP: blocks GIV peptide binding to rat Galpha-i3; P08753; Galpha-i3/FITC-GIV peptide fluorescence polarization, 90 min; hits give low values; scaled: aluminum fluoride 0%, vehicle 100%; percent of control (FP), % (no concentration beside the values); actives 0.42% (n = 210,000); AID 1224905;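 active means replicate mean at 85% of control or lower, very high polarization wells dropped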;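 further: wells of about 15 µL received 100 nL stock; the first replicate is given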
# Target sequence (P08753 whole entry, looked up): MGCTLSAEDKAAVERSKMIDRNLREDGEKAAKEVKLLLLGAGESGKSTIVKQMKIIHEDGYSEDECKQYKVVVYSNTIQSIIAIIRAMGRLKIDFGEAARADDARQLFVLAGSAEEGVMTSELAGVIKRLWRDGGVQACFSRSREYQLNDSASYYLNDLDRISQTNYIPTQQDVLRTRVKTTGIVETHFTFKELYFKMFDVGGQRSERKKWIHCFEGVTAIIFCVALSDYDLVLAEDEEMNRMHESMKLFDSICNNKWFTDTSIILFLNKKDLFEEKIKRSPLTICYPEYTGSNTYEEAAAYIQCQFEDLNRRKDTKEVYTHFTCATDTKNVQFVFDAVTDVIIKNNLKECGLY
# HCMV NEC inh: cytomegalovirus nuclear egress complex inhibition; HTRF UL50-UL53 interaction, normalized percent inhibition; inhibition, % (concentration not given with the values); actives 0.15% (n = 190,000); AID 1918969;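 active means both replicates at 50% or more, plus weaker picks with an unusually low signal ratio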;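 further: stock transfer was 100 nL into about 20 µL; 0% = negative control wells and 100% = wells with untagged competitor protein; inactives centre near -12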
# Sa growth inh second temp: further read-out of Sa growth inh, marked with its call; relative growth, %; measured here: growth at 30 °C;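 optical density after 20 h as mean of two plates; 100% = untreated growth and lower means inhibition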
# Active calls of the source: *; / = no result given; & = joins results of further samples.
No.	SMILES	Sa growth inh	Sa growth inh second temp	GIV Gai3 FP	HCMV NEC inh
1	COc1ccc(C2CC(=O)NC(NC(=O)c3ccc(Br)cc3)=N2)c(OC)c1OC (stereo not given)	105.4	92.2	106.6	/
2	O=S(=O)(c1ccccc1)N1CCN=C1N1CCN(c2ccc(F)cc2)CC1	/	/	104.8	5.7
3	C=CCn1cnc2c1c(=O)n(C)c(=O)n2C	97.8	92.1	92.0	2.9
4	O=C(CCCCn1c(=O)c2ccccc2n(CC(=O)Nc2cccc(F)c2)c1=O)NCc1ccccc1Cl	105.4	92.5	95.2	-7.0
5	CCN(C(=O)COc1ccc(C#N)cc1OC)C1CCCCC1	107.6	87.6	/	-20.7
6	COc1ccc(N(C(C)=O)C2SC(=O)N(c3ccccc3)C2=O)cc1 (stereo not given)	107.6	90.7	105.8	/
7	Oc1ccc(Br)cc1C=Nc1nonc1-c1ccccc1	111.7	99.2	100.8	11.7
8	CC(C)c1ccc(Cn2c(CCCO)nc3ccccc32)cc1	/	/	105.4	1.0

# A draw from above in order of molecular weight, descending:
No.	SMILES	Sa growth inh	Sa growth inh second temp	GIV Gai3 FP	HCMV NEC inh
2	O=S(=O)(c1ccccc1)N1CCN=C1N1CCN(c2ccc(F)cc2)CC1	/	/	104.8	5.7
6	COc1ccc(N(C(C)=O)C2SC(=O)N(c3ccccc3)C2=O)cc1 (stereo not given)	107.6	90.7	105.8	/
3	C=CCn1cnc2c1c(=O)n(C)c(=O)n2C	97.8	92.1	92.0	2.9

# Next section
No.	SMILES	Sa growth inh	Sa growth inh second temp	GIV Gai3 FP	HCMV NEC inh
9	CC1CC(C)CN(C(=O)COc2ncnc3ccccc23)C1 (stereo not given)	87.8	89.2	/	-0.5
10	CC(OC(=O)c1ccc(Cl)c(S(N)(=O)=O)c1)c1nnc(-c2cccs2)o1 (stereo not given)	122.3	71.5	/	15.4
11	CCc1ccc(-c2nc3c(c(SCc4ccccc4)n2)Cc2c(CO)cnc(C)c2O3)cc1	84.7	78.2	100.4	/
12	O=C(NCCc1ccccc1)c1cccc(N2CCCC2=O)c1	102.1	82.5	102.7	/
13	COc1cccc(NS(=O)(=O)c2cc(N3C(=O)CCS3(=O)=O)ccc2OC)c1	/	/	105.4	0.3
14	NC1=NC(=O)C(c2ccccc2Cl)S1 (stereo not given)	101.1	78.6	100.4	0.6
15	COC(=O)CSc1ncn(S(=O)(=O)c2ccc(C)cc2)n1	/	/	104.0	0.2
16	O=c1[nH]ccc2nc(NCc3ccccc3)ncc12	104.3	88.9	99.8	-17.4
17	CC(C)c1ccc(Nc2ncnc3onc(-c4ccc(F)cc4)c23)cc1	84.0	94.1	97.3	/
18	CCc1nn2c(=O)cc(COc3ccc(C=C(C#N)C#N)cc3OC)nc2s1	104.8	88.7	98.9	-51.1
19	O=C(Cn1nnc(-c2cccs2)n1)NC1CC1	87.3	108.3	97.4	12.1
20	Cc1ccc(-n2ncc3c(N4CCCCCC4)ncnc32)cc1C	112.6	87.6	102.1	/
21	CCC(=O)Nc1nn(CC)c2nc3ccccc3cc12	90.6	97.4	102.7	-54.4
22	NS(=O)(=O)c1ccc(NC(=O)Cc2cccs2)cc1	101.0	88.5	107.8	3.3
23	COc1ccc(Cl)cc1NC(=O)CSc1nc2c([nH]c3ccccc32)c(=O)n1-c1ccccc1	100.5	72.4	109.1	/
24	O=C(N(c1ccccn1)C1CCCCC1)C12CC3CC(CC(C3)C1)C2	112.1	81.2	95.4	-3.8
25	FC(F)(F)c1cccc(-n2c(-c3ccncc3)n[nH]c2=S)c1	104.0	87.8	99.9	-33.2
26	COc1ccc(N2CCN(c3ccc(S(=O)(=O)N(C(C)C)C(C)C)cn3)CC2)cc1	67.9	86.3	/	-11.8
27	CCOC(=O)c1c(N2C(=O)CSCC2=O)sc2c1CCCC2	115.1	82.8	100.8	-5.8
28	Cc1ccc(CSc2nnc([C@@H]3CCCN3)o2)cc1	/	/	100.1	-18.8
29	CC(=O)Nc1ccccc1-c1nc2ccc(C(=O)NC3CCCC3)cc2[nH]c1=O	91.7	84.2	102.4	-10.2
30	C=C(C)CNC(=S)N1CCSC1=Nc1ccccc1OC	108.4	76.2	/	-34.5
31	CCn1nc(C)c(CCNC(=O)c2ccc(CN3C(=O)CCn4nccc43)cc2)c1C	/	/	99.0	-7.0
32	Cn1cc(C(=O)N2CCN(c3cccc(Cl)c3)CC2)c(=O)c2cc(S(=O)(=O)N3CCCC3)ccc21	99.9	111.3	99.0	-1.3
33	c1ccc(-c2cn3c4ccccc4n(CCN4CCCCC4)c3n2)cc1	99.8	59.7	/	7.7
34	O=C(Nc1cccn(Cc2ccccc2)c1=O)NC1CCCCC1	109.0	85.6	99.6	-3.5
35	Cc1cc(-c2ccc(S(=O)(=O)Nc3ccccc3C)cc2)on1	130.6	85.7	99.2	/
36	Cc1nnc(SC(C)C(=O)Nc2ccccc2)[nH]c1=O (stereo not given)	87.6	91.0	101.6	-25.4
37	O=C1NCCN1CCNS(=O)(=O)c1ccc(F)c(Cl)c1	95.3	95.0	103.1	-9.4
38	Cn1c(=O)c2cc(C(=O)NCCCN3CCN(c4ccc(F)cc4)CC3)sc2c2ccccc21	106.6	87.2	103.6	-22.4
39	Cc1ccc(CNC(=O)Cn2c(=O)cc(-c3ccccc3)c3c(C)nn(C)c32)cc1	86.6	91.2	102.3	/
40	CC1(c2ccc(Cl)cc2)NC(=O)N(CN2CCCC(C(F)(F)F)C2)C1=O (stereo not given)	100.4	99.4	/	-55.9
41	CCN(C(=O)Cn1c(SCc2ccccc2F)nc2cccnc21)c1ccccc1	81.0	99.1	99.6	/
42	O=C1NC(Cc2ccccc2)(Cc2ccccc2)C(=O)N1Cc1nnc(-c2cccs2)o1	103.1	94.8	/	-29.6
43	O=C(O)c1ccc(-c2ccsc2)cc1	112.6	89.2	106.6	-6.5
44	CCc1ccc2nc(N3CCCC3)c(C#N)cc2c1	88.0	88.3	94.4	-71.0
45	O=C(CSC1=Nc2ccccc2C2=NC(Cc3ccccc3)C(=O)N12)Nc1cccc(Cl)c1 (stereo not given)	95.1	67.3	100.5	/
46	Cc1c(C(=O)NCCN2CCOCC2)oc2c1-c1nn(Cc3ccccc3Cl)cc1CC2	93.0	77.8	100.3	-29.2
47	CCOC(=O)c1cc(-c2cccs2)nn1C(=O)c1ccccc1	107.5	96.5	101.5	4.2
48	Cc1cc(Cl)ccc1NS(=O)(=O)c1ccc2c(c1)sc(=O)n2CCC(=O)N1CCCC1	/	/	101.0	-5.0
49	CCN(CC)c1ccc(C=Nc2cc(C)cc(C)c2)cc1	92.6	84.1	/	-35.8
50	Cc1ccc(C(=O)CCNc2ccc(F)c(Cl)c2)o1	113.7	85.8	100.9	-5.1
51	CCn1cc2nc(SC)n(CCc3ccccc3)c(=O)c2n1	111.9	74.1	105.7	-22.9
52	COc1cc(C(Nc2ccc(S(=O)(=O)NCC3CCCO3)cc2)C(=O)NC(C)(C)C)cc(OC)c1OC (stereo not given)	63.3	79.4	102.7	-4.6
53	COc1c2c(nc3occc13)C(CC=C(C)C)(OC)C(O)CC2 (stereo not given)	91.7	95.1	106.5	-27.2
54	O=C(COc1coc(CN2CCN(Cc3ccccc3)CC2)cc1=O)NC1CCCCC1	92.0	92.1	104.5	-5.5
55	O=S(=O)(NC1CC1)c1ccc(S(=O)(=O)N2CCC3(CC2)OCCO3)cc1	126.0	98.2	104.9	-19.8
56	O=C(Nc1ccc2[nH]c(=O)oc2c1)c1ccccc1Cl	/	/	103.4	-18.2
57	Cc1ccc(-c2nn(-c3ccccc3Cl)cc2C(=O)Oc2ccc(-c3nnco3)cc2)cc1	101.7	100.6	/	-19.7
58	CC1Cc2ccccc2N1C(=O)COc1ncnc2ccc(Br)cc12 (stereo not given)	97.5	91.9	/	-17.4
59	CCOC(=O)Cn1nc(C(F)(F)F)c(Br)c1C1CC1	92.3	84.2	96.0	/
60	CC(C#N)(Nc1ccc(Cl)cc1)c1ccccc1 (stereo not given)	98.2	91.7	108.2	-5.2
61	O=C(COc1ccc(F)cc1)NCc1ccc2c(c1)CCN2C(=O)c1ccccc1	125.3	88.7	100.1	/
62	CC(C)N(C(=O)C1CC(=O)OC12CCCCC2)C(C)C (stereo not given)	113.3	87.0	102.2	-17.5
63	CCn1c(=O)n(CC)c2cc(NC(=O)CSc3ncc(C#N)c(N)n3)ccc21	102.0	65.0	103.8	-17.3
64	CCOc1ccc(CCN2CNc3c(c(=O)n(C)c(=O)n3C)C2)cc1OCC	/	/	104.9	-11.2

# Other results.
No.	SMILES	Sa growth inh	Sa growth inh second temp	GIV Gai3 FP	HCMV NEC inh
65	Cc1cccc(-c2cc(Nc3ccc(C(=O)NC(C)C)cc3)ncn2)c1	/	/	102.3	-13.6
66	CCc1ccc2oc3nc(N)c(C#N)cc3c(=O)c2c1	91.3	90.0	101.6	4.8
67	O=C(Cc1c[nH]c2ccccc12)N1CCN(S(=O)(=O)c2ccc(F)cc2)CC1	102.5	87.6	106.4	-12.8
68	CCN(C(=O)CN1C(=O)C(C)CSc2ccc(S(=O)(=O)N3CCOCC3)cc21)c1ccccc1 (stereo not given)	/	/	97.2	-13.0
69	N#Cc1ccc(CON2C(=O)CCC2=O)cc1	94.6	92.0	/	-3.2
70	Cc1csc(NC(=O)c2cccnc2)n1	103.5	99.9	103.3	-37.2
71	Cc1nn(C)c2c1c(C(F)(F)F)cc(=O)n2CC(=O)N1CCN(c2ccccc2F)CC1	109.3	90.9	99.9	/
72	CN(C)c1ccc(C2CC(c3ccc(Br)cc3)=NN2C(=O)CCC(=O)O)cc1 (stereo not given)	/	/	102.3	-68.4
73	CCCCc1cc(=O)oc2cc(OCC(=O)c3ccc(F)cc3)ccc12	115.4	96.0	100.1	/
74	CCS(=O)(=O)c1ccc(OCc2cc(=O)n3oc(C)cc3n2)c(NC(=O)C(C)C)c1	/	/	102.5	18.6
75	CC(C)c1ccc(C2NC(=O)c3n[nH]c(-c4cccs4)c32)cc1 (stereo not given)	110.4	91.2	106.8	-2.1
76	CCOc1ccc2nc(N(Cc3cccnc3)C(=O)c3ccc4c(c3)OCCO4)sc2c1	91.6	83.7	106.7&108.2	/
77	CN1C(=O)c2ccccc2Sc2ccc(NC(=O)NCCCN3CCOCC3)cc21	82.8	79.7	102.0	-17.3
78	NN(CCC(=O)NC1CCCCC1)C1=NS(=O)(=O)c2ccccc21	122.4	85.2	/	-1.3
79	OCC1CC2CC(O)CC(C1)C2 (stereo not given)	91.3	95.0	/	0.0
80	Cc1oc(-c2ccccc2)cc1C(=O)/C=C/N(C)C	98.3	87.9	105.8	-12.2
81	CN(C)c1ncnc2c1c(-c1ccccc1)cn2-c1ccccc1Cl	/	/	100.8	-31.9
82	FC(F)C(F)(F)Oc1ccccc1	102.8	95.6	/	6.5
83	CCCCNC(=O)C1=CC(c2ccc3c(c2)OCO3)=NS(=O)(=O)N1C	110.2	87.5	104.7	-27.9
84	CCOC(=O)c1cc(-c2ccccc2)n(CCC(=O)Nc2ccc(C(F)(F)F)cc2)c1C	91.7	100.6	102.4	/
85	NC(=O)CNC(=O)c1ccc2ccccc2n1	99.4	87.4	/	-28.4
86	CCOc1ccc(NC(=O)CSc2nc(=O)n(CCCN3CCOCC3)c3c2CCCC3)cc1	97.5	88.4	103.7	-12.2
87	Nc1ccccc1C1CC1	98.9	83.7	101.5	0.0
88	CC1(C)COC(c2ccc(O)cc2)OC1	108.2	79.6	/	-16.7
89	O=C1CCC(=O)N1c1nc2n(n1)C(c1ccc(F)cc1)C=C(c1ccc(Cl)cc1)N2 (stereo not given)	/	/	100.9	-23.8
90	O=C(CON1C(=O)CCC1=O)N1CCN(c2ccccc2)CC1	90.1	90.4	/	-27.3
91	Cc1c(-c2nsc(NC(=O)c3cccs3)n2)nnn1-c1ccc(Cl)cc1	97.1	67.5	105.3	/
92	Cc1c(C(=O)Oc2ccccc2F)oc2ccccc12	114.3	103.3	112.6	-19.8
93	Cc1ccc(NC(=O)C2CCCN(c3cnccn3)C2)cc1Cl (stereo not given)	101.3	92.0	96.7	-18.5
94	Cc1nc(C)c(NC(=O)N2CCCCC2C)cc1NC(=O)N1CCCCC1C (stereo not given)	110.6	86.7	107.3	-6.9
95	Clc1ccc(C2Nc3ccccc3O2)cc1Cl (stereo not given)	70.3	29.8	109.3	-20.9
96	N#CC1=C(N)OC2=C(C(=O)CCC2)C12C(=O)Nc1ccc([N+](=O)[O-])cc12 (stereo not given)	/	/	101.7	-41.5

# As entered above:
# no. 96 @ HCMV NEC inh = -41.5
# no. 93 @ Sa growth inh = 101.3

# (further entries)
No.	SMILES	Sa growth inh	Sa growth inh second temp	GIV Gai3 FP	HCMV NEC inh
97	O=C(NC1CCCCCC1)c1ccc(CS(=O)(=O)Cc2ccccc2F)o1	84.6	79.4	102.5	-24.0
98	CC(=O)Nc1c(C)nc2nc[nH]n2c1=O	92.3	92.1	/	1.2
99	Brc1cccc(Nc2nc3nonc3nc2NCc2ccco2)c1	40.5	31.4	100.7	-19.0
100	CN1C(=O)c2[nH]nc(-c3ccc(F)cc3)c2C1c1ccccn1 (stereo not given)	109.5	86.6	105.3	0.9

# An excerpt of these results, as labelled records.
[99] Brc1cccc(Nc2nc3nonc3nc2NCc2ccco2)c1
  Sa growth inh = 40.5 | Sa growth inh second temp = 31.4 | GIV Gai3 FP = 100.7 | HCMV NEC inh = -19.0
[98] CC(=O)Nc1c(C)nc2nc[nH]n2c1=O
  Sa growth inh = 92.3 | Sa growth inh second temp = 92.1 | GIV Gai3 FP = / | HCMV NEC inh = 1.2
[97] O=C(NC1CCCCCC1)c1ccc(CS(=O)(=O)Cc2ccccc2F)o1
  Sa growth inh = 84.6 | Sa growth inh second temp = 79.4 | GIV Gai3 FP = 102.5 | HCMV NEC inh = -24.0

# Assay outcomes from PubChem.
